Screening results from PubChem.
fixLJ activator: B. multivorans fixK reporter activation; B. multivorans fixK-promoter GFP reporter, 18 h; stronger effect = higher value; z-score (test concentration not listed); 29,000 tested, 0.3% active; AID 1918990;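 active = replicate mean overnight rise in green fluorescent reporter signal, 3 or more SD over negative controls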;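 note: score is relative to vehicle wells of the plate; 300 nL library stock went into each well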
* marks the source's active call; other numbers are inactive results; & = joins results of further samples.

SMILES | fixLJ activator
CCOC(=O)c1cccc(-n2nnc3c(sc4nc(C)c(Br)c(C)c43)c2=O)c1 | -1.2
CCN(CC)c1ccc(NC(=O)C(Cc2ccccc2)NS(=O)(=O)c2ccc(Br)s2)c(C)c1 (stereo not given) | 1.1
COc1cccc(-c2nnc(SCC(=O)N3CCC(C)CC3)o2)c1 | -1.1
O=c1c2sc3ccccc3c2n(Cc2cccc(F)c2)c(=O)n1Cc1ccccc1 | 1.2
Cc1cccc(N(CC(N)=O)C2SC(=O)N(Cc3cccc(C(=O)O)c3)C2=O)c1 (stereo not given) | -1.1
CCOc1ccc(N(CC)C(=O)c2nn(-c3ccc(OC)cc3)c(=O)c3c2c2ccccc2n3C)cc1 | 0.88
Cc1ccc(-n2c(=O)c3ccccc3n(CC(=O)Nc3cccc(C(F)(F)F)c3)c2=O)cc1 | -0.28
Cc1nccc(-c2ccccc2)c1C(=O)N1CC2CCN(C)C(=O)C2C1 (stereo not given) | -0.11
CCN1CC2(CCN(C(=O)c3ccc4nc(CO)[nH]c4c3)CC2)CC1=O | -0.92
CC(=O)Nc1ccc(NC(=O)c2nc(SCc3ccccc3C)ncc2Cl)cc1 | -1.6
Cc1ccc(Cn2c(=O)n(Cc3ccco3)c(=O)c3sc4ccccc4c32)cc1 | -1.8
COc1ccc(NC(=O)C(NS(=O)(=O)c2cccc3nsnc23)C(C)C)cc1OC (stereo not given) | -1.7
CSc1ncc(Cl)c(C(=O)Nc2ccc(S(=O)(=O)Nc3nccc(C)n3)cc2)n1 | -1.2
O=c1oc2ccc3ccccc3c2cc1-c1nnc(Nc2ccccc2F)s1 | 0.59
CCCOc1ccc(OC(=O)c2ccc(-c3ccc(CCC)cn3)cc2)cc1 | 0.41
CC(C(=O)Nc1ccccn1)N1CC(c2nc3ccccc3[nH]2)C1 (stereo not given) | -3.2
CSc1ccccc1-c1ccc(C(=O)N2CCNC(=O)C2CCO)cc1 (stereo not given) | -1
CCCCCn1c(=O)[nH]c2cc(C(=O)N3CCN(c4cccc(OC)c4)CC3)ccc2c1=O | -1.4
Cc1nn(C)c(C)c1CCC(=O)Nc1ccc(N2C(=O)CCC2C)cc1 (stereo not given) | -1.2
CCOc1cc(C2c3c(oc4ccc(F)cc4c3=O)C(=O)N2Cc2ccco2)ccc1O (stereo not given) | -1.8
CCCn1cnnc1CNc1cc(-c2ccccc2)nc2ccnn12 | -0.45
CCN1CCN(c2cc(C)c3cc(NC(=O)/C=C/c4cccc(OC)c4OC)ccc3n2)CC1 | -3.3
CCn1c(=O)c2sccc2n2c(CCC(=O)N3CCN(c4ccccc4OC)CC3)nnc12 | 0.29
Cc1ccc(-c2nnc3c4ccccc4c(-c4ccccc4)nn23)cc1 | -0.67
COC(=O)c1c(NC(=O)COc2cc(C)c(Cl)c(C)c2)sc2c1CCCC2 | 0.03
Remaining list, next part:
SMILES | fixLJ activator
CCN(CC)CCCNC(=O)c1cn(CC)c2ccc(S(=O)(=O)N3CCc4ccccc4C3)cc2c1=O | 0.65
CCn1c(CC2C(=O)N(C)c3ccccc32)nc2ccccc2c1=O (stereo not given) | -2.3
CC(=O)N1CCc2cc(Br)cc(S(=O)(=O)CCC(=O)NCCc3ccc(Cl)cc3)c21 | -1.3
COc1ccc(OCCn2nnc3sc4c(c3c2=O)CCCC4)cc1 | -0.13
COCCNC(=O)c1ccc(NC(=O)NCc2cc(C)nc(C)c2)cc1 | -5
COc1ccc(CNC(=O)C2CCN(S(=O)(=O)c3ccc(C)cc3)CC2)cc1 | -5.2
CCc1nn(CC(=O)Nc2cc(C)cc(C)c2)c(=O)c2cc3sccc3n12 | -3.5
Cc1ccc(NC(=O)/C(C#N)=C\c2ccc(-c3ccc(Cl)cc3)o2)c(C)c1 | 0.07
COc1ccccc1C(=O)N1CCc2nnc(CCc3ccccc3)n2CC1 | -0.33
O=C(Nc1sc2c(c1C(=O)NCc1ccccc1)CCCC2)c1cc(=O)c2ccccc2o1 | -1.2
Cc1ccc(NC(=O)Cn2cc(C(=O)C3CCCCC3)c3ccccc32)cc1 | -4.9
CCCN(CCC)CCCNC(=O)c1cc2c(=O)n(C)c3ccccc3c2s1 | 0.08
CCCCC(=O)OC1=C(C(=O)c2ccccc2)N(C)S(=O)(=O)c2ccccc21 | 2.3
Cc1ccc(Cl)cc1N1CCN(C(=O)CCCn2c(=O)[nH]c3ccc(Br)cc3c2=O)CC1 | -1.8
Cc1ccc2cccc(NC(=O)COc3ccccc3Cl)c2n1 | 1.5
CCN(CC)C(=O)c1ccc(NC(=O)Cn2nc(-c3ccc(C)cc3)c3ccccc3c2=O)cc1 | -2.1
Cc1ccc(-c2cc(C(F)(F)F)n3nc(C(=O)Nc4ccc(Cl)c(C(F)(F)F)c4)cc3n2)cc1 | 0.74
O=C(CN1C(=O)CCSc2ccccc21)Nc1ccccc1F | -0.64
COc1ccc(-c2nc3ccccc3o2)cc1NC(=O)c1ccc(OCC(C)C)cc1 | -2
COc1ccc(OC)c(NC(=O)CCNC(=O)Cn2cnc3ccccc3c2=O)c1 | 0.39
COc1ccc(N2CCN(C(=O)c3nc(SC)ncc3Cl)CC2)cc1 | -1.4
Brc1ccc(Nc2c3c(nc4nncn24)CCC3)cc1 | -1.3
CCN(CC)c1cc(C)c2cc(NC(=O)c3ccccc3Cl)ccc2n1 | -0.18
Cc1c[nH]c(CNC(=O)C2(c3cccs3)CC2(C)C)c(C)c1=O (stereo not given) | -0.42
COCCn1c(=O)[nH]c2cc(C(=O)N3CCN(c4ccccc4)CC3)ccc2c1=O | -1.3
Later entries
SMILES | fixLJ activator
Cc1cc(S(=O)(=O)Nc2cccc(C(=O)O)c2)c(C)c(S(=O)(=O)c2ccccc2)c1 | -1.9
O=c1c(S(=O)(=O)c2ccc(Cl)cc2)cn(Cc2ccc(F)cc2)c2ccc(F)cc12 | 1
Cc1cccc(NC(=O)c2sc3nc4c(cc3c2N)CN(C(C)C)CC4)c1 | 0.29
COCC1C(NC(=O)c2cc(C)nc3c(Cl)cccc23)C2CCOC21 (stereo not given) | 0.14
CC(=O)c1cccc(NC(=O)Cn2nc(C(F)(F)F)c3c2CCC3)c1 | -0.38
O=C(C1CCN(S(=O)(=O)c2ccc(Br)s2)CC1)N1CCN(c2cccc(C(F)(F)F)c2)CC1 | 1
O=C(Cn1nnc(-c2cccc(C(F)(F)F)c2)n1)NCc1ccc(F)cc1 | -1.1
O=C(Cc1cccc(F)c1F)N1CCC(Cc2noc(C3CC3)n2)CC1 | -0.21
Cc1c(Cl)cccc1NC(=O)c1cc2nc(-c3ccc4c(c3)OCO4)cc(C(F)(F)F)n2n1 | -1.7
COC(=O)C1CC(NC(=O)CCc2nc3c(C)c(C)ccc3[nH]2)CN1C (stereo not given) | -0.9
CCOc1ccc(-c2cc(OC(=O)c3ccc(OC)cc3)c3c(C)oc(C)c3c(=O)c2)cc1 | -1.3
CCN(Cc1ccccc1)C(=O)C(CC(C)C)NS(=O)(=O)c1ccc2c(c1)CCN2C(C)=O (stereo not given) | -1.5
CCCCN(CCCC)C1=C(C(=O)c2ccccc2)N(CC)S(=O)(=O)c2ccccc21 | -0.89
Cc1nc2cc(OCc3nc(C(=O)NC(CO)C(C)C)co3)ccc2s1 (stereo not given) | 2.7
COCCn1c(CCC(=O)Nc2cc(C)ccc2C)nc2cccnc21 | -0.15
CN(C)Cc1cccc(CN(C)c2cc(C3CC(N)C3)nc(N)n2)c1 (stereo not given) | 0.31
Cc1ccc2nc(-c3ccc(NC(=O)Cc4ccccc4)cc3)sc2c1 | -1.1
O=C(NCc1nncn1C1CCCCC1)c1ccc(C(F)(F)F)nc1 | -1.2
Nc1nc(C2CCOC2)cc(N2CCC(c3ccncc3)CC2)n1 (stereo not given) | 1.9
Cc1ccccc1Nc1c(-c2c(F)cccc2Cl)nc2ccc(Br)cn12 | 0.48
COc1cccc(C(=O)N(Cc2ccc(N(C)C)cc2)Cc2ccco2)c1 | -2.2
Cc1ccc(NC(=O)Cc2coc3ccc(C(C)C)cc23)c(C)c1 | -0.69
CCCC1=Nc2cc(C(=O)NCC(C)c3ccccc3)ccc2Sc2ccccc21 (stereo not given) | -0.62
COc1ccc(C2CC(=O)N(CC(=O)Nc3cc(C)ccc3C)c3ccccc3S2)cc1 (stereo not given) | -1.7
CCc1ccc(-n2c(=O)c3c4c(sc3n(Cc3ccccc3C#N)c2=O)CCCC4)cc1 | 1.2
Remaining list, next part
SMILES | fixLJ activator
Cc1ccc(C)c(Nc2nnc(-c3ccc(C)c(S(=O)(=O)NCC4CCCO4)c3)c3ccccc23)c1 (stereo not given) | -1.6
O=C(NCCc1nnc2n1CCNCC2)c1cccc(-c2cn[nH]c2)c1 | -0.95
COC(=O)c1c(NC(=O)c2nc(SCc3ccccc3C)ncc2Cl)sc2c1CCCC2 | 2
O=C(Cc1cc(F)c(F)c(F)c1)NCc1cc(C2CC2)on1 | -0.97
O=C(NC(=O)c1ccccc1)Nc1ccc(-c2cc(C(F)(F)F)nn2-c2ccccc2)cc1 | -1.3
COc1cc(Cl)c(C)cc1NC(=O)c1cc2c(Cl)nc3ccc(C)cc3c2s1 | 0.15
Cc1cc(Nc2cccc(C(=O)O)c2)n2nc(C)nc2n1 | 0.27
O=C(O)c1cc(=O)c2c(OCC(O)COc3cccc4oc(C(=O)O)cc(=O)c34)cccc2o1 | -1.8&-0.02
Cc1c(C(=O)OC2CCCCC2)[nH]c2c1C(=O)CC(c1ccc(F)cc1)C2 (stereo not given) | -4.3
COc1ccc(-n2c3c(cc(-c4nc(-c5ccc(C)cc5)cs4)c2=O)C(=O)CC(C)(C)C3)cc1 | -0.68
Cc1cc(OCCn2cc(C(=O)c3ccco3)c3ccccc32)ccc1Cl | 1.5
CC(=O)OCC(=O)[C@H]1CCC2C3CCC4=CC(=O)CC[C@]4(C)C3CC[C@@]21C (stereo not given in full) | -0.91
COc1ccc(-c2noc(CSc3nc4ccccc4[nH]3)n2)cc1 | -2.7
Cc1nnc(CNC(=O)Nc2cc3c(cc2N(C)C)n(C)c(=O)n3C)o1 | 0.91
CCC1CCCCN1CCCNC(=O)c1cc2c(Cl)nc3ccc(C)cc3c2s1 (stereo not given) | -0.7
COc1ccc(-c2cc(C(F)(F)F)nc(S(=O)(=O)CCCC(=O)Nc3cccc(O)c3)n2)cc1OC | -2.1
O=C(C1CC1)N1CC2COC[C@]2(C(=O)N2CCN(Cc3ccccc3)CC2)C1 (stereo not given in full) | -0.34
Cc1cc(NC(=O)c2ccco2)cc(-c2nc3cc(Cl)ccc3o2)c1O | 1
COc1ccccc1C(=O)Nc1ccccc1OCc1cc(=O)n2c(C)csc2n1 | -0.74
Cc1nc2cc(-c3ccccc3)nn2c(C)c1CCC(=O)N1CCN(c2ccccc2)CC1 | -1.1
N#Cc1cccc(C(=O)N2CCCC3(CCc4cn[nH]c43)C2)c1 (stereo not given) | 0.46
O=C(NCc1noc(Cc2ccccc2)n1)C1CCCN(C2CCCC2)C1 (stereo not given) | 1.7
COc1ccc(CNC(=O)C(=O)Nc2cccc(C)c2C)cc1 | -3
CC(C)S(=O)(=O)N1CCC(c2nnc(CN3CCCCC3)n2C)CC1 | -1.2
Cc1nc(N(C)C)ncc1C(=O)NCCCc1csc(N)n1 | -1.4
(cont.)
SMILES | fixLJ activator
Cc1csc(SCC(=O)NCc2ccc(C(=O)N3CCCCC3)cc2)n1 | -0.44
COc1ccc(S(=O)(=O)N2CCC(O)C(C(=O)O)C2)cc1OC (stereo not given) | 0.83
Cc1ccccc1Nc1c(-c2ccc(Br)cc2O)nc2sccn12 | -0.46
COc1ccc(CN2CCN(S(=O)(=O)c3ccccc3)CC2)c(OC)c1 | -1.5
CCNc1nc(C)c(C(=O)NC(c2ccc3c(c2)CCO3)C2CC(O)C2)s1 (stereo not given) | 0.08
Cn1ccnc1C(O)c1cc2n(n1)CCN(Cc1cccc(Cl)c1)C2 (stereo not given) | 0.34
CCN(CC)S(=O)(=O)c1ccc(NC(=O)CCc2c(C)nc3cc(-c4ccc(Cl)cc4)nn3c2C)cc1 | 2.3
O=C(COc1ccc(F)cc1)NCCc1nc2ccccc2[nH]1 | -2.6
CN1CCN(CCCNC(=O)c2cnn(-c3ccccc3)c2-n2cccc2)CC1 | -0.74
Cc1ccc(S(=O)(=O)c2c(C)nn(-c3ccccc3)c2OC(=O)c2ccccc2F)cc1 | -0.76
CCOC(=O)c1ccccc1NC(=O)N(Cc1ccc(C)cc1)Cc1cccn1-c1nnc(N2CCCC2=O)s1 | -0.43
CCOC(=O)c1cnc2c(Cl)cc(Cl)cc2c1Nc1cc(C(=O)O)ccc1C | -0.4
O=C(NCc1ccc(Cl)cc1)C(=O)Nc1cccc(Br)c1 | 0.78
Cc1ccc(Cn2c3ccccc3c3cnn(CC(=O)Nc4cc(Cl)ccc4C)c(=O)c32)cc1 | -1.1
CNC(=O)c1cc(S(=O)(=O)NCC(c2ccccn2)N2CCOCC2)cs1 (stereo not given) | -0.6

Quoted from the listing (5 entries):
SMILES | fixLJ activator
CCOC(=O)c1ccccc1NC(=O)N(Cc1ccc(C)cc1)Cc1cccn1-c1nnc(N2CCCC2=O)s1 | -0.43
CCOC(=O)c1cnc2c(Cl)cc(Cl)cc2c1Nc1cc(C(=O)O)ccc1C | -0.4
O=C(NCc1ccc(Cl)cc1)C(=O)Nc1cccc(Br)c1 | 0.78
Cc1ccc(Cn2c3ccccc3c3cnn(CC(=O)Nc4cc(Cl)ccc4C)c(=O)c32)cc1 | -1.1
CNC(=O)c1cc(S(=O)(=O)NCC(c2ccccn2)N2CCOCC2)cs1 (stereo not given) | -0.6

Looked up by structure from above, two records:
SMILES | fixLJ activator
CCOC(=O)c1cnc2c(Cl)cc(Cl)cc2c1Nc1cc(C(=O)O)ccc1C | -0.4
O=C(NCc1ccc(Cl)cc1)C(=O)Nc1cccc(Br)c1 | 0.78

Another view of 2 compounds above.
structure,fixLJ activator
Cc1ccccc1Nc1c(-c2ccc(Br)cc2O)nc2sccn12,-0.46
CCOC(=O)c1cnc2c(Cl)cc(Cl)cc2c1Nc1cc(C(=O)O)ccc1C,-0.4

Some of the compounds tested (hit frequency here may not be typical).
